Compound activity deposited in PubChem BioAssay by Broad Institute.
AF4-AF9 inh: inhibitors of human MLL-AF4/AF9 interaction; P42568; AlphaScreen, biotin-AF4 peptide binding to FLAG-AF9; inhibition, % at 10 µM; 0.47% of 350,000 active;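 active = every replicate reaching a set inhibition limit, whatever the replicate mean, cut at about 25% in these data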;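 also: 0% = plate neutral control median and 100% = total signal loss; the record names both 10 and 1 µM as test concentration; the first replicate is given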
Target sequence (P42568 whole entry, looked up): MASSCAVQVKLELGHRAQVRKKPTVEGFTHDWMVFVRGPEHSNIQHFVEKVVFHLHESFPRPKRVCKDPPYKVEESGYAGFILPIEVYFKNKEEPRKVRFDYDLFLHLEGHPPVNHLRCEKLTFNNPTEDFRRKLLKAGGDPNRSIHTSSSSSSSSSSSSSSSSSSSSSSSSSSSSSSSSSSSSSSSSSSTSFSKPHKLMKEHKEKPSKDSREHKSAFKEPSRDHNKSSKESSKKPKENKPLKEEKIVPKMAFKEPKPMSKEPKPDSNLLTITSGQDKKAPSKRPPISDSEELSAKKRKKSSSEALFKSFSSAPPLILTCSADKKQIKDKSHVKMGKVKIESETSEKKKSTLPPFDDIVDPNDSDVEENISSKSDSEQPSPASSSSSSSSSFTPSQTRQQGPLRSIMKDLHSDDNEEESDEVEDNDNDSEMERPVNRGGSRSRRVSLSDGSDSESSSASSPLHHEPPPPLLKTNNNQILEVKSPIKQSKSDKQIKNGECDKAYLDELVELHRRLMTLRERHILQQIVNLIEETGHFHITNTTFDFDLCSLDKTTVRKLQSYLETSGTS
Numbers without * were called inactive; & = joins results of further samples. Not all compounds are listed; rates above refer to the full screens.

Preview, 2 compounds:
SMILES	AF4-AF9 inh
CN1C(=O)c2cc(NC(=O)Cc3cccs3)ccc2OC[C@H]2O[C@H](CC(=O)N[C@@H]3CCN(Cc4ccccc4)C3)CC[C@H]21	1.7
CCC(=O)Nc1ccc2c(c1)C(=O)N(C)C[C@@H](OC)[C@@H](C)CN(CCC(F)(F)F)[C@H](C)CO2	-2.8

The whole of this part, previewed entries included:
SMILES	AF4-AF9 inh
CN1C(=O)c2cc(NC(=O)Cc3cccs3)ccc2OC[C@H]2O[C@H](CC(=O)N[C@@H]3CCN(Cc4ccccc4)C3)CC[C@H]21	1.7
CCC(=O)Nc1ccc2c(c1)C(=O)N(C)C[C@@H](OC)[C@@H](C)CN(CCC(F)(F)F)[C@H](C)CO2	-2.8
COCC(=O)Nc1ccc2c(c1)OC[C@H](C)N(C(=O)c1cnccn1)C[C@@H](C)[C@@H](OC)CN(C)C2=O	-1.1
C[C@@H]1CN([C@H](C)CO)C(=O)CCCn2nncc2CO[C@H]1CN(C)S(=O)(=O)c1ccc(Oc2ccccc2)cc1	2.1&-15.1
COc1ccc(CCN2C(=O)[C@@]3(Cc4ccccc42)c2ccccc2C(=O)N(Cc2ccccc2C(F)(F)F)[C@H]3c2ccc(CO)cc2)cc1	-3.7
CO[C@H](CN(C)C(=O)c1ccccc1F)[C@H](C)CN([C@@H](C)CO)S(=O)(=O)c1ccc(F)cc1	0.1
CC(C)N1C(=O)C(=O)N(CC(=O)N2c3ccccc3CC2C)C1=O (centres undefined)	0.8
O=C(C[C@@H]1CC[C@@H](NC(=O)C2CCC2)[C@@H](CO)O1)NC1CCCCC1	-2.5
C[C@H](NC(=O)C[C@H]1C[C@H]2c3cc(NC(=O)C4CCOCC4)ccc3O[C@H]2[C@H](CO)O1)c1ccccc1	0.4
CN(C)CCCNC(=O)C[C@H]1C=C[C@H](NC(=O)c2ccccc2F)[C@@H](CO)O1	-2.7
C/C=C/c1cnc2c(c1)C(=O)N([C@H](C)CO)C[C@@H](C)[C@H](CN(C)C(=O)Cc1ccccc1)O2	-1.4
CN(C)CC(=O)Nc1ccc2c(c1)[C@H]1C[C@@H](CC(=O)NCc3cccnc3)O[C@H](CO)[C@H]1O2	-0.3
O=C(C[C@@H]1C=C[C@H](NC(=O)c2ccccc2)[C@H](CO)O1)NCCc1ccncc1	-2.0
C[C@@H]1CCCCO[C@@H](CN(C)S(=O)(=O)c2cccs2)[C@@H](C)CN([C@@H](C)CO)C(=O)c2cc(NS(=O)(=O)c3cccs3)ccc2O1	-0.3
COc1ccc(NC(=O)N(C)C[C@@H]2Oc3ccc(NS(=O)(=O)c4ccc(F)cc4)cc3C(=O)N([C@H](C)CO)C[C@@H]2C)cc1	-1.2
CC(C)(C)[S@](=O)N1Cc2cc(C(=O)N3CCCCC3)nc(-c3cccc(-c4ccccc4F)c3)c2[C@@H]1CCO	4.4
COc1ccc2c3c([nH]c2c1)[C@@H](CO)N(C(=O)CN1CCOCC1)CC31CN(C(=O)NC(C)C)C1	-2.4
O=C(N[C@H]1CC[C@@H](CCNC(=O)C2CC2)O[C@H]1CO)c1ccncc1	-2.3
C[C@@H]1CN([C@H](C)CO)C(=O)c2cc(-c3ccccc3F)cnc2O[C@H]1CN(C)Cc1ccccc1	-2.6
COc1ccccc1-c1ccc2n(c1=O)C[C@H]1[C@H](CO)[C@@H](C(=O)N(C)C)N(CC3CCOCC3)[C@@H]21	-16.2
O=C(/C=C/[C@H]1O[C@@H](n2cnc3c(NC(=O)c4ccccc4)ncnc32)[C@H](O)[C@@H]1O)NC1CCCCC1	-1.8
CN1CCN(C(=O)C[C@@H]2CC[C@@H]3[C@H](COC[C@H](O)CN3C(=O)c3ccccc3F)O2)CC1	-7.4
COc1ccc(NC(=O)Nc2ccc3c(c2)CC(=O)N([C@H](C)CO)C[C@H](C)[C@@H](CN(C)C(=O)Nc2ccccc2)O3)cc1	3.7
Cc1noc(C)c1NC(=O)N[C@@H]1CC[C@H](CC(=O)Nc2ccc(-c3ccccc3)cc2)O[C@@H]1CO	-18.6
CCCc1nc2c(C)cc(Br)cn2c1Cc1ccccc1OC	3.6

An excerpt from above in order of their number in AF4-AF9 inh, rising:
SMILES	AF4-AF9 inh
COc1ccccc1-c1ccc2n(c1=O)C[C@H]1[C@H](CO)[C@@H](C(=O)N(C)C)N(CC3CCOCC3)[C@@H]21	-16.2
CN1CCN(C(=O)C[C@@H]2CC[C@@H]3[C@H](COC[C@H](O)CN3C(=O)c3ccccc3F)O2)CC1	-7.4
COc1ccc(CCN2C(=O)[C@@]3(Cc4ccccc42)c2ccccc2C(=O)N(Cc2ccccc2C(F)(F)F)[C@H]3c2ccc(CO)cc2)cc1	-3.7
CCC(=O)Nc1ccc2c(c1)C(=O)N(C)C[C@@H](OC)[C@@H](C)CN(CCC(F)(F)F)[C@H](C)CO2	-2.8
COc1ccc(NC(=O)N(C)C[C@@H]2Oc3ccc(NS(=O)(=O)c4ccc(F)cc4)cc3C(=O)N([C@H](C)CO)C[C@@H]2C)cc1	-1.2
CO[C@H](CN(C)C(=O)c1ccccc1F)[C@H](C)CN([C@@H](C)CO)S(=O)(=O)c1ccc(F)cc1	0.1
C[C@H](NC(=O)C[C@H]1C[C@H]2c3cc(NC(=O)C4CCOCC4)ccc3O[C@H]2[C@H](CO)O1)c1ccccc1	0.4

Next part:
SMILES	AF4-AF9 inh
CCN1CCN(c2ccc(S(=O)(=O)N3CCOCC3)cc2NC(=O)C2CCC(C(C)(C)C)CC2)CC1 (centres undefined)	8.9
Cc1cc2oc(=O)cc(CN3CCCCCCC3)c2cc1Cl	7.4
CN(C)C(=O)C[C@H]1CC[C@@H]2[C@H](COC[C@@H](O)CN2C(=O)c2ccncc2)O1	-0.8
C[C@@H]1CN([C@H](C)CO)C(=O)c2cccc(NC(=O)Nc3cccc4ccccc34)c2O[C@@H]1CN(C)C(=O)Nc1cccc2ccccc12	1.8
C/C=C/c1ccc([C@@H]2[C@@H](CO)N3CCCCN(S(=O)(=O)c4cccs4)C[C@@H]23)cc1	-5.1
CNC[C@H]1Oc2ccc(NC(=O)CCCN(C)C)cc2CC(=O)N([C@H](C)CO)C[C@@H]1C	-6.3
CC(=O)Nc1ccc(C(=O)N2CCCCC2c2cc(C(=O)N3CCOCC3)no2)cc1 (centres undefined)	2.2
O=C(C[C@@H]1C[C@H]2c3cc(NC(=O)C4CCC4)ccc3O[C@H]2[C@@H](CO)O1)NC1CCCC1	2.5
COc1ccc(S(=O)(=O)Nc2ccc3c(c2)CC(=O)N([C@H](C)CO)C[C@H](C)[C@H](CN(C)Cc2ccc(C(=O)O)cc2)O3)cc1	-4.9
CN(C)C(=O)c1ccc(-c2ccccc2[C@@H]2[C@@H](C#N)N(C(=O)C3CCC3)[C@@H]2CO)cc1	-0.1
COc1ccccc1NC(=O)N1C[C@@H](O)COC[C@@H]2O[C@H](CC(=O)NCCc3ccccc3)CC[C@H]21	-12.8
COc1cccc(C(=O)Nc2ccc3c(c2)OC[C@@H](C)N(CC2CC2)C[C@H](C)[C@H](OC)CN(C)C3=O)c1	0.0
O=C(c1[nH]c(C(F)(F)F)nc1-c1ccccc1)N1CCN(Cc2c(F)cccc2Cl)CC1	-2.4
O=C(NCc1ccccc1F)[C@H]1[C@H](CO)[C@H]2Cn3c(cccc3=O)[C@H]2N1CC1CCCC1	-3.4
C[C@H]1CN([C@@H](C)CO)C(=O)c2cc(NC(=O)Cn3cnnn3)ccc2O[C@@H]1CN(C)S(=O)(=O)c1ccc(Cl)cc1	-14.4
O=C(c1ccccc1)N1C[C@H]2[C@@H](c3ccccc31)[C@H](CO)N2C(=O)c1cccc(F)c1	-3.9
CCN(C[C@@H]1[C@@H](c2ccc(-c3cccnc3)cc2)[C@@H](CO)N1C(C)=O)C(C)=O	-0.2
COc1cccc(NC(=O)N2CC(=O)N3[C@@H](CO)[C@H](c4ccc(C#CC5CCCC5)cc4)[C@@H]3C2)c1	7.2
O=C(O)[C@H]1[C@H](CO)[C@H]2Cn3c(ccc(-c4cncnc4)c3=O)[C@H]2N1C(=O)C1CCCC1	-3.9
CN(C)C(=O)c1ccc(-c2ccc(C3[C@@H]4CN(C(=O)c5cnccn5)C[C@H]3N4)cc2)cc1 (some centres undefined)	-3.4
C/C=C/c1ccc([C@@H]2[C@@H](CN(C)S(C)(=O)=O)N(C(C)=O)[C@H]2CO)cc1	1.3
COc1ccc(CN(C)C[C@H]2Oc3ccc(NS(C)(=O)=O)cc3CC(=O)N([C@@H](C)CO)C[C@H]2C)cc1	0.1
COc1ccc2nc(NN=Cc3cccc(C)n3)cc(C)c2c1	2.5
COc1cccc(S(=O)(=O)N2CCC3(CC2)CN[C@@H](CO)c2c3c3ccc(OC)cc3n2C)c1	10.9
C[C@@H]1CN([C@H](C)CO)C(=O)c2cccc(N(C)C)c2O[C@H]1CN(C)Cc1ccc(Oc2ccccc2)cc1	5.9
SMILES	AF4-AF9 inh
Cc1ccc(S(=O)(=O)N(C)C[C@@H]2Oc3ccc(NC(=O)CCN4CCOCC4)cc3C(=O)N([C@@H](C)CO)C[C@H]2C)cc1	-0.7
C[C@H](CO)N1C[C@H](C)[C@@H](CN(C)S(=O)(=O)c2ccc(Cl)cc2)Oc2ccc(N(C)C)cc2C1=O	13.7
COc1ccc(CN2[C@@H]3CN(C(=O)NC(C)C)c4ccccc4[C@@H]3[C@@H]2CO)cc1	-2.5
C[C@@H]1CCCCO[C@@H](CN(C)C(=O)Nc2ccc(C(F)(F)F)cc2)[C@H](C)CN([C@H](C)CO)C(=O)c2cc(NS(C)(=O)=O)ccc2O1	-0.3
C[C@@H]1CN([C@H](C)CO)C(=O)Cc2cc(NC(=O)Cc3ccccc3)ccc2O[C@@H]1CN(C)CC1CCCCC1	0.2
Cc1ccc(NC(=O)OC[C@@H]2CSCCS(=O)(=O)N2)cc1	-3.0
CCC(=O)Nc1ccc2c(c1)C(=O)N(C)C[C@H](OC)[C@@H](C)CN(Cc1ccccc1C(=O)O)[C@H](C)CO2	-15.9
COc1ccc(CN(C)C[C@H]2OCCCC[C@H](C)Oc3ccc(NS(=O)(=O)c4ccc(C)cc4)cc3C(=O)N([C@@H](C)CO)C[C@H]2C)cc1	6.2
CC(C)NC(=O)N1[C@H](CO)[C@H](c2ccccc2)C12CN(C(=O)CN(C)C)C2	-0.1
CO[C@@H]1CN(C)C(=O)c2ccc(NC(C)=O)cc2OC[C@H](C)N(C(=O)Cc2ccccn2)C[C@H]1C	0.6
O=C(NCC[C@@H]1CC[C@H](NC(=O)C2CC2)[C@H](CO)O1)Nc1ccc(C(F)(F)F)cc1	2.7
C[C@@H]1CN([C@@H](C)CO)C(=O)c2cc(NC(=O)CCC(F)(F)F)ccc2O[C@@H](C)CCCCO[C@@H]1CN(C)S(=O)(=O)c1cccs1	-1.1
Cc1noc(C)c1S(=O)(=O)N(C)C[C@H]1OCCCC[C@@H](C)Oc2ccc(NC(=O)Cc3ccccc3)cc2C(=O)N([C@H](C)CO)C[C@@H]1C	-1.9
O=C(NC1CCCC1)N1CCCCN2[C@H](CO)[C@@H](c3ccc(-c4cncnc4)cc3)[C@H]2C1	-5.2
COCC(=O)N[C@@H]1CC[C@H](CC(=O)NCc2ccc(Cl)cc2)O[C@@H]1CO	-0.3
C[C@H]1CN([C@@H](C)CO)C(=O)CCCn2cc(nn2)CO[C@@H]1CN(C)Cc1ccc(-c2ccccc2)cc1	2.9
O=C(NCC[C@H]1CC[C@@H](NS(=O)(=O)c2cccc(F)c2)[C@H](CO)O1)C1CCC1	-3.6
Cc1ccccc1-c1cnc2c(c1)C(=O)N([C@H](C)CO)C[C@@H](C)[C@H](CN(C)C(=O)CN(C)C)O2	-0.9
CO[C@H]1CN(C)C(=O)c2cc(NS(=O)(=O)c3ccc(Cl)cc3)ccc2OC[C@@H](C)NC[C@@H]1C	-2.4
COCC#Cc1ccc2c(c1)O[C@H](CN(C)Cc1ccc3c(c1)OCO3)[C@@H](C)CN([C@H](C)CO)S2(=O)=O	9.5
COCC(=O)N1C[C@@H](C)[C@H](OC)CN(C)C(=O)c2ccc(NC(=O)c3ccccc3)cc2OC[C@@H]1C	-12.0
O=C(C[C@H]1C[C@@H]2c3cc(NC(=O)CC4CC4)ccc3O[C@@H]2[C@H](CO)O1)NCc1ccccn1	-3.3
COc1ccc(S(=O)(=O)N(C)C[C@@H]2Oc3ncc(Br)cc3C(=O)N([C@H](C)CO)C[C@@H]2C)cc1	3.5&-2.6
COc1ccccc1S(=O)(=O)N[C@@H]1CC[C@H](CC(=O)NCc2cccc(F)c2)O[C@H]1CO	-0.3
O=C(NCCN1CCCCC1)[C@H]1[C@H](CO)[C@H]2Cn3c(cccc3=O)[C@@H]1N2C(=O)C1CCCCC1	3.6
SMILES	AF4-AF9 inh
CCOC(=O)C(c1nc2ccccc2[nH]1)n1c(-c2ccccn2)nc2ccccc21 (centres undefined)	3.1
O=C(Nc1cccc(F)c1)N1C[C@@H]2[C@H](c3ccccc31)[C@@H](CO)N2C(=O)Cc1ccccc1	-1.2
COc1ccccc1CNC(=O)c1cc(-c2cc(Cl)ccc2C)n[nH]1	-0.3
CCC(=O)N1[C@H](C(=O)NCCCN(C)C)[C@@H](CO)[C@@H]2Cn3c(ccc(-c4ccccc4OC)c3=O)[C@@H]21	0.6
CO[C@@H]1CN(C)C(=O)c2ccc(NC(=O)c3ccccc3)cc2OC[C@H](C)N(C)C[C@H]1C	0.1
CN(C)CC(=O)Nc1ccc2c(c1)[C@@H]1C[C@H](CC(=O)N3CCc4ccccc4C3)O[C@H](CO)[C@@H]1O2	2.5
CCC(=O)N(C)C[C@@H]1Oc2cc(C#Cc3ccccn3)ccc2S(=O)(=O)N([C@H](C)CO)C[C@@H]1C	-1.7
COc1ccc(CN(C)C[C@@H]2Oc3ccc(NC(=O)CCC(F)(F)F)cc3C(=O)N([C@@H](C)CO)C[C@@H]2C)cc1	-1.1
O=S(=O)(N[C@H]1CC[C@H](CCNS(=O)(=O)c2ccccc2Cl)O[C@H]1CO)c1ccccc1	-1.6
CO[C@@H]1CN(C)C(=O)c2ccc(NS(=O)(=O)CC(F)(F)F)cc2OC[C@@H](C)N(Cc2ccccn2)C[C@H]1C	-11.3
O=c1cc(CCc2ccccc2)oc2cccc(O)c12	2.4
CN(C)CC#Cc1ccc([C@@H]2[C@H](C#N)N[C@@H]2CO)cc1	2.0
